HNF4A DNA FP = change in binding of human HNF4 alpha to DNA; activity change, % at 10 µM; HNF4a-FITC DNA binding, fluorescence polarization, 1 h; hit rate 0.3% among 360,000; AID 1224865; P41235; in the data active means activity change above about 30%, passing the limit was not always enough;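 further: controls were the assay level and a saturating level of protein; the project sought stronger binding though the title names inhibitors; some compounds called inactive have numbers as strong as hits; positive values seem to mean higher polarization but the record does not say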
Target sequence (P41235 whole entry, looked up): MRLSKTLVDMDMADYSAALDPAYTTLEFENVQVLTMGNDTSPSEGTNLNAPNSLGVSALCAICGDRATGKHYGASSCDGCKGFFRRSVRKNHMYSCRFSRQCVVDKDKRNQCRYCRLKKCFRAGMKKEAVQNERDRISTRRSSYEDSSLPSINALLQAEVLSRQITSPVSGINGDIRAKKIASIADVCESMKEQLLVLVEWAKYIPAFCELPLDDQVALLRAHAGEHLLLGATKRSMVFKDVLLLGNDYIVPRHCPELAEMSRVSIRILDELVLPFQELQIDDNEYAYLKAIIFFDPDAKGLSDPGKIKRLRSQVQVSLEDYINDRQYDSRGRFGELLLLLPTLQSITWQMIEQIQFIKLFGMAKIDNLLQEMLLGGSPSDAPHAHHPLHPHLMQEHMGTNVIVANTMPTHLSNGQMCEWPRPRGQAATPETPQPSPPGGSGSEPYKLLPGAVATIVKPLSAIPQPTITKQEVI
RanGTP-Imp inh = inhibitors of RanGTP-importin-beta interaction, primary screen, biochemical, FRET, CFP-Ran, YFP-importin-beta, homogeneous. inhibition, % (test concentration not listed). hit rate 1.1% among 300,000. AID 2216. cell-free CFP-Ran/YFP-importin-beta FRET ratio;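 active means most replicates above 15%; inconclusive means exactly half above 15%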;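 further: 0% = DMSO wells and 100% = Ran loaded with GDP instead of GTP; wells of about 40 µL received 100 nL stock; the first replicate is given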
ALR inh = inhibitors of human sulfhydryl oxidase ALR; inhibition, % (concentration not given with the values); purified ALR, DTT oxidation, H2O2 HRP-luminol luminescence; P55789; AID 485317; hit rate 3.8% among 290,000;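 active means mean and each replicate at 75% or more; inconclusive means only one of the two met; inactive means neither met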;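 further: stock transfer was 7.5 nL into about 7.5 µL; 0% = neutral wells and 100% = wells with inactivated enzyme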
Target sequence (P55789 whole entry, looked up): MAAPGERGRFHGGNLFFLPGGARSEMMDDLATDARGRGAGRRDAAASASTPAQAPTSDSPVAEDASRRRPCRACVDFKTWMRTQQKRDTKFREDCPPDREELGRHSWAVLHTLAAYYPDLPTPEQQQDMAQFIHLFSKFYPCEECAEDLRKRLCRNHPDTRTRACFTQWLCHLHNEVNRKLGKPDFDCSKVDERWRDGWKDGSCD
B2AR ag = human beta-2 adrenergic receptor agonism by FAP | Am2.2-beta2AR cells, FAP receptor internalization, flow cytometry; reference of the scale not given here | hit rate 0.43% among 340,000 | response, % (no concentration beside the values) | P07550;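 active means response above a set limit, near 3 SD of response in nonfluorescent compounds, cut at about 42% in these data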;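 further: stock transfer was 100 nL into about 11 µL; a reference agonist was the positive control; negative values mostly stem from fluorescent compounds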
Target sequence (P07550 whole entry, looked up): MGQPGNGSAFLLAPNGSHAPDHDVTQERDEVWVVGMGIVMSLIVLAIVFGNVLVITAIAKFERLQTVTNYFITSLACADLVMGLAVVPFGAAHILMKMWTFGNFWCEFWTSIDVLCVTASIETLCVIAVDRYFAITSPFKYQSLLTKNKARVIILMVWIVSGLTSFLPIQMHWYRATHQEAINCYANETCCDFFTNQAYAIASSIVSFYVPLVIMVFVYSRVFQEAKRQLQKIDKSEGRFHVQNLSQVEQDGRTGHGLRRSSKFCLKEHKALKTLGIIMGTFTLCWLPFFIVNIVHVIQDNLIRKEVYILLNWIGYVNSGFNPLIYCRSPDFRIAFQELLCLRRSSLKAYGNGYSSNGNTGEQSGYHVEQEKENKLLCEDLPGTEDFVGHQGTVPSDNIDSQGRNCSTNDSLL
Calb FLC = affects C. albicans growth with fluconazole; AID 1979; growth inhibition, % (test concentration not listed); hit rate 0.57% among 300,000; C. albicans CaCi-2 (fluconazole-resistant clinical isolate) + fluconazole, Alamar Blue growth, 48 h;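 active means most replicates above 75%; inconclusive means exactly half above 75%; inactive means most below 75%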;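 further: all wells also contain fluconazole at 8 µg/ml as a sub-toxic cotreatment; 0% = median of DMSO wells and 100% = median of geldanamycin control wells; wells of about 8 µL received 7.5 nL stock; the first replicate is given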
Vif A3G = inhibitors of Vif binding to APOBEC3G peptide, primary screen, biochemical, TR-FRET, GST-Vif 1-94, biotin-A3G peptide, dose response retest (AID 1117319); TR-FRET GST-Vif / biotin-A3G peptide binding; higher % means a stronger effect; test concentration not given here; strong numbers were not always called active; one-dose inhibition, %; IC50 in µM for titrated hits; hit rate 0.57% among 260,000;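 active means above the screen mean plus three standard deviations and confirmed in dose response; inconclusive means results disagree or hit not tested in dose response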;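 further: Vif residues 1-94 fused to GST binding biotinylated APOBEC3G peptide 110-148; 0% = full assay without inhibitor and 100% = GST in place of GST-Vif; retest series ran down from 100 µM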
LANA-H2B inh = blocks KSHV LANA binding to histone H2A/H2B | Q9QR71 | cell-free LANA-H2A/H2B peptide, fluorescence polarization | inhibition, % (concentration not given with the values) | hit rate 0.6% among 320,000 | AID 2629; in the data active means inhibition mostly above about 10%, no sharp cut-off; inactive means mostly below about 6.7%;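 further: stock transfer was 7.5 nL into about 10 µL; 0% = median of vehicle wells and 100% = median of positive control wells; one replicate is shown; the record names a cut of 25% in any replicate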
* hit, by the source's call; ? = inconclusive; · = not tested or not shown. Compounds were not picked by outcome. About 6.3% of those tested had a hit in this group.

SMILES	HNF4A DNA FP	RanGTP-Imp inh	ALR inh	B2AR ag	Calb FLC	Vif A3G	LANA-H2B inh
COc1cc(/C=C2\CCC(C3CCCC3)C2=O)ccc1OC(C)C (configuration not stated)	-13	-1.9	6	3	4	3%	2.3
CCOC(=O)C1CCCN(C/C=C/c2ccccc2)C1 (configuration not stated)	2.1	3.6	-10	-2	2	-6%	2.2
COc1cc(CCN2C(=O)c3cccc4cccc(c34)C2=O)c(S(=O)(=O)NCCCO)cc1OC	7.0	-0.3	-6	8	8	-5%	-3.0
Cc1sc2c(c1C)c(=O)nc1scc(CC(=O)O)n12	2.0	?	-12	-5	2	-3%	0.2
CN(C)c1ccc(C(=O)Nc2ccc(S(=O)(=O)Nc3nccs3)cc2)cc1	-2.5	-3.9	-7	3	5	·	5.5
CCCCOc1ccc(S(=O)(=O)Nc2cccnc2)cc1	-0.6	9.7	-1	-11	14	-5%	0.2
Cc1ccccc1OCC(=O)Nc1ccccc1CO	4.8	1.3	-22	5	-2	2%	3.4
O=C1C[C@H](c2ccc(O)cc2)Oc2cc(O[C@@H]3O[C@H](CO)[C@@H](O)[C@H](O)[C@H]3O)cc(O[C@@H]3O[C@H](CO)[C@@H](O)[C@H](O)[C@H]3O)c21	1.6	·	49	7	·	·	-2.0
COc1cc(N=C2C(=O)N3c4c(cccc42)C(C)=CC3(C)C)cc(OC)c1	-1.4	-0.4	24	17	-21	-4%	2.1
OCc1ccccc1OCCCN1CCC(Cc2ccccc2)CC1	-2.0	-0.3	-10	1	-12	·	0.1

Structural class: the compounds so far with nitrogen in an aromatic ring.
SMILES	HNF4A DNA FP	RanGTP-Imp inh	ALR inh	B2AR ag	Calb FLC	Vif A3G	LANA-H2B inh
Cc1sc2c(c1C)c(=O)nc1scc(CC(=O)O)n12	2.0	?	-12	-5	2	-3%	0.2
CN(C)c1ccc(C(=O)Nc2ccc(S(=O)(=O)Nc3nccs3)cc2)cc1	-2.5	-3.9	-7	3	5	·	5.5
CCCCOc1ccc(S(=O)(=O)Nc2cccnc2)cc1	-0.6	9.7	-1	-11	14	-5%	0.2

More compounds.
SMILES	HNF4A DNA FP	RanGTP-Imp inh	ALR inh	B2AR ag	Calb FLC	Vif A3G	LANA-H2B inh
Fc1ccc(C2NCCn3cccc32)cc1 (configuration not stated)	-1.4	0.3	-12	2	-3	-2%	-1.2
Cc1ccc(C(=O)C(C)OC(=O)Cn2[nH]c(=O)c3ccccc3c2=O)cc1 (configuration not stated)	-2.2	2.6	0	8	-2	-13%	-7.1
COc1ccc(OCC(=O)Nc2ccc(NC(=O)c3ccco3)cc2)cc1	1.6	4.8	-2	14	-5	1%	-0.6
COc1ccc2c(CC(=O)Nc3c(C)n(C)n(-c4ccccc4)c3=O)coc2c1	0.2	1.4	·	-1	-4	8%	-2.5
CC(Sc1ccc(Cl)cc1)C(=O)N(C)CC(=O)Nc1ccc(N2CCOCC2)cc1 (configuration not stated)	2.2	?	92*	-7	-3	7%	1.0
CCOc1ccc(C(=O)NC(=S)Nc2ccccc2OC)cc1[N+](=O)[O-]	1.8	-5.2	-1	-1	-5	18%	2.7
COc1cc2c(cc1NC(=O)Nc1ccc(C)cc1)oc1ccccc12	-3.5	-6.9	-11	11	1	-2%	-3.7
COC(=O)C1=C(C)N=C2SCCC(=O)N2C1c1cccs1 (configuration not stated)	-3.0	7.7	-3	10	3	1%	0.4
Cn1c(-c2ccc3c(c2)OCO3)cnc1NCc1ccccc1Cl	1.8	-2.8	22	3	-24	6%	3.3
CC(=O)Nc1ccccc1OCc1nnc(-c2ccc(Cl)cc2)o1	1.0	0.7	8	2	15	-4%	-1.6
CC(C)(C)OC(=O)C[C@@H]1C/C=C\C[C@H](CC(=O)N[C@@H](CO)Cc2ccccc2)C(=O)N[C@H](Cc2ccccc2)COC1=O	-0.4	·	-1	9	·	·	-2.4
Cc1ccc(CNC(=O)Nc2cccc(C)c2)cc1	-1.2	-6.3	5	1	-17	0%	2.1
COc1cccc(NC(=O)CSc2nnc(-c3cc(C)[nH]n3)n2N)c1	-2.0	-3.4	-2	1	13	·	5.2
CCCS(=O)(=O)N1CCn2c(nc3ccccc32)C1	-3.3	-5.7	·	6	1	2%	0.5
CCCCNC(=O)N(O)C1N(/N=C/c2ccccc2O)C(=S)SC1(C)C (configuration not stated)	2.7	0.4	-3	4	-8	3%	1.9
CCCCOC(=O)Nc1cc(OC)c(Cl)cc1OC	0.0	3.0	-2	4	20	?	7.5
CN1C(=O)NC(c2ccccc2[N+](=O)[O-])C2=C1CCCC2=O (configuration not stated)	-75	6.7	55	-36	-2	·	18
NC(=O)CC1C(=O)N(c2ccccc2)C(=S)N1NC(=O)c1ccc(Br)cc1 (configuration not stated)	0.2	-1.8	20	0	-8	4%	-2.7
CCOc1ccc(N2CC(C(=O)Nc3ccc4c(c3)OCO4)CC2=O)cc1 (configuration not stated)	-1.0	-1.7	-1	-3	14	1%	0.7
C=CCn1c(C)cc(/C([O-])=C(/C(=S)Nc2ccc(OC(F)F)cc2)[n+]2ccc(N(C)C)cc2)c1C	4.1	2.9	16	5	-15	17%	-0.6
CCOC(=O)C1CCN(Cc2c(F)cccc2Cl)CC1	1.2	?	98*	4	-15	3%	6.3
CCCc1[nH][nH]c(=O)c1C(c1ccccc1)C(C#N)C#N (configuration not stated)	-1.0	-3.6	40	3	9	4%	4.1
Clc1ccc(-c2nnc3sc(Cc4cccs4)nn23)c(Cl)c1	-0.2	-1.5	1	-18	25	11%	0.9
Cc1ccc(C(=O)N2c3ccccc3OCC2C)cc1 (configuration not stated)	-0.9	-3.7	-3	11	-5	-4%	-1.9
CCN(C(=O)C(C)Cl)c1ccccc1 (configuration not stated)	5.8	0.9	-1	0	1	-4%	-1.3
Cc1nc(N2CCN(S(=O)(=O)c3ccccc3)CC2)c2cc(-c3ccccc3)sc2n1	1.9	1.7	-4	-3	-12	-5%	5.8
O=C(CN(C(=O)c1csnn1)c1ccc(Cl)cc1)NCCc1ccccc1	4.7	0.9	-2	1	5	·	-0.3
CCCn1nc(C(=O)NNC(=O)CSC(C)C(=O)Nc2cc(C)on2)c2ccccc2c1=O (configuration not stated)	-2.9	-1.5	-14	-2	-4	·	0.3
O=C(NCC(=O)N(c1ccccc1)C(C(=O)NC1CCCC1)c1ccncc1)c1cccs1 (configuration not stated)	-1.2	-1.5	-5	-9	0	4%	-3.9
Cc1c(CCC(=O)NCCCN2CCCC2=O)c(=O)oc2c(C)c(O)ccc12	-1.1	33*	·	0	0	·	2.3
CC(=O)c1nn(-c2ccc(Br)cc2)cc1C(=O)c1ccco1	-3.4	2.2	6	-6	9	-5%	1.8
Cc1ccc(S(=O)(=O)N(CC(=O)NN=C2CCN(C)CC2)c2ccc(F)cc2)cc1	4.1	-0.1	-2	-3	2	-9%	2.7
COC(=O)C1=C(C(=O)OC)[C@@H]2N(Cc3ccccc3)c3ccccc3[C@@]23C[C@@H](CO)N(C(=O)NC2CCCC2)C3=N1	2.5	1.3	1	12	1	·	2.6
CC(C)(C)NC(=S)N/N=C/c1cc(Br)c(O)c(Br)c1	-5.0	2.9	75	12	76*	4%	0.1
C/C(=N/NC(=O)C1CCCC1)c1ccc(NC(=O)C(F)(F)F)cc1	25	?	-6	-1	0	·	4.6
CC(=O)O[C@H]1CC[C@H]2[C@@H]3CCc4cc(O)ccc4[C@H]3CC[C@]12C	0.6	?	5	-5	-12	·	-14
CC(=O)Nc1ccc(S(=O)(=O)NCCC(=O)OCC(=O)NNC(=O)c2ccccc2)cc1	-1.1	2.9	-2	-17	-3	-1%	-0.7
CCN1CC(C)C(O)(c2ccccc2)CC1C (configuration not stated)	-1.2	-1.0	-5	6	-5	8%	-2.8
CC1(C)CC(O)C(C)(C)N1O (configuration not stated)	0.5	-0.5	0	7	-1	10%	-1.1
COC(/C=C/Nc1ccc(OC)cc1)=C(C#N)C#N	0.5	-3.7	-5	11	9	7%	-0.9
Cc1csc2ncc(C(=O)Nc3ccon3)c(=O)n12	-3.7	5.1	1	-16	-7	14%	-9.3
O=C(CSCc1ccc(Cl)cc1)Nc1ccc(S(=O)(=O)N2CCCCCC2)cc1	-2.8	0.8	11	2	2	·	-5.7
COc1ccc(NC(C)=O)cc1NC(=O)CN1CCN(S(=O)(=O)c2ccc(C(C)C)cc2)CC1	0.9	0.2	-2	9	2	4%	0.8
O=C1C2C3C=CC(CC3)C2C(=O)N1/N=C/c1c(O)ccc2ccccc12 (configuration not stated)	-0.2	6.8	-62	2	12	-12%	4.5
CCC(C)NC(=O)Cn1nc(C(F)(F)F)c2c1CCCC2 (configuration not stated)	-0.4	0.0	-8	9	-1	0%	-1.0
Cc1cc(C)n(CC(O)COc2ccc(C(C)C)c(C)c2)n1 (configuration not stated)	0.8	4.2	-2	2	2	-6%	0.9
CCCCN(C(=O)c1cc2c(s1)CCCCC2)c1c(N)n(CCC)c(=O)[nH]c1=O	4.3	·	0	4	·	4%	-2.9
COC(=O)c1ccc(-c2n[nH]c(=O)c3ccccc23)cc1	4.8	1.6	-12	0	1	23%	2.4
O=C(COC(=O)CCSc1ccc(Cl)cc1)NCCc1ccccc1	-4.2	-0.3	-22	4	-2	·	3.2
Cc1cc(C(=O)Nc2cc(Br)ccc2O)on1	-3.9	-2.0	8	15	19	-2%	2.4
More records follow.
SMILES	HNF4A DNA FP	RanGTP-Imp inh	ALR inh	B2AR ag	Calb FLC	Vif A3G	LANA-H2B inh
CN(CCOC(=O)c1ccc2c(c1)OCO2)C(C)(C)C	-1.4	4.4	-4	0	-5	19%	1.9
CCNC(=O)C(CC(C)C)NC(=O)C(CO)NC(=O)C1CCC(=O)N1 (configuration not stated)	5.3	-0.5	18	6	27	-6%	-1.9
Cc1ccccc1-n1nnc2c(=O)oc3ccccc3c21	-5.6	4.1	-22	17	9	3%	0.1
N#Cc1nc(N2CCCCC2)nc(N2CCOCC2)n1	4.6	0.1	2	4	-9	-3%	2.8
CCOC(=O)c1c(C)[nH]c(C)c1C(=O)COc1ncnc2cc([N+](=O)[O-])ccc12	-0.8	7.2	-6	0	9	0%	2.1
O=S(=O)(c1cccc2nonc12)N1CCCCC1	2.5	2.2	1	-2	-7	2%	-4.1
Cc1c(C(=O)NCC2CCCO2)oc2c(Cl)cccc12 (configuration not stated)	1.1	-2.4	3	-4	4	4%	4.6
O=C(CSc1nc2ccccc2c(=O)n1-c1ccccc1Cl)Nc1cccc(S(=O)(=O)N2CCOCC2)c1	6.1	1.8	-4	8	13	13%	0.5
CCOC(=O)C1=C(N)c2ccccc2CC1C(C)C (configuration not stated)	-0.7	0.1	·	2	0	16%	7.0
CCCCCCOc1ccc(N2C(=O)CC(N3CCN(CCN=CC4=C(O)CC(C)(C)CC4=O)CC3)C2=O)cc1 (configuration not stated)	-1.8	?	0	-8	12	·	0.8
Cc1cccc(-c2c3c(=O)n(C)c(=O)n(C)c3cn2CC2CCCO2)c1 (configuration not stated)	1.4	6.6	-38	-3	24	3%	-5.5
CCOCCCNC1=C(Cl)C(=O)c2ccccc2C1=O	4.1	3.6	-59	-3	-3	-4%	-6.9
CC1(C)C(=O)Nc2ccccc2N1C(=O)COc1ncnc2ccccc12	-1.9	-4.5	·	-6	2	23%	0.7
CCOCCCNC(=O)c1ccc(OC(C)=O)cc1	0.3	2.2	2	2	-7	-3%	-3.7
O=C(NC(=S)Nc1ccccc1N1CCN(C(=O)c2ccccc2)CC1)c1cccs1	-3.8	-4.1	-3	-3	5	-11%	-3.7
O=C(Oc1ccc(N2C(=O)CCC2=O)cc1)c1ccccc1Cl	-3.2	-2.7	1	3	-8	11%	-0.3

Source: PubChem
